Compound activity: PubChem BioAssay, National Center for Advancing Translational Sciences (NCATS)
2A firefly – lowers the firefly signal of an FMDV 2A StopGo reporter. HEK cells with a luciferase reporter of 2A StopGo recoding. Potency, µM (highest dose often 57.5 µM), inactives show top-dose signal change, negative = less light. hit rate 0.23% among 120,000. AID 1745856; active = well fitted falling curve with a large enough effect; inconclusive = small, poorly fitted or top-dose-only effect; inactive = no such curve, though single readings can be large or run the other way; note: nearly all actives have a fitted effect of over 60% in size; overnight with compound
2A Renilla – FMDV 2A StopGo reporter, Renilla signal; HEK cells with a luciferase reporter of 2A StopGo recoding; Potency, µM (highest dose often 57.5 µM), without a hit: top-dose signal change, negative = less light; hit rate 0.32% among 120,000; AID 1745857; active means well fitted falling curve with a large enough effect; inconclusive means small, poorly fitted or top-dose-only effect; inactive means no such curve, though single readings can be large or run the other way; note: nearly all actives have a fitted effect of over 55% in size; overnight with compound
* hit, by the source's call; ? = inconclusive; [ ] = dose if it differs, or a comment. % is set by controls: 0 for no effect and ±100 for the full control effect; potency is the fitted concentration of half-maximal effect.

SMILES	2A firefly	2A Renilla
CS(=O)(=O)n1nc(-c2ccc(Cl)cc2)nc1N	0%	1%
FC(F)Oc1ccc(/C=N/NC(=S)NCc2ccccc2)cc1	-10%	9%
CCN(CC)S(=O)(=O)c1nc(C)c(Cl)c(C)c1C#N	-14%	-3%
CC(C(=O)N1CCNC1=O)N(C)Cc1cccc(Cl)c1 (stereo not given)	-5%	-11%
COc1ccc2c(Sc3ccc(C)cc3)c(C(=O)NCCc3ccccc3)[nH]c2c1	28%	-4%
Cc1ccc(CNc2nc(-c3ccco3)nn2S(C)(=O)=O)o1	163%[activator]	101%[activator]
CN(CCO)c1ccc2c(c1)Oc1ccccc1CN(Cc1cn(Cc3ccc(C(F)(F)F)cc3)nn1)S2(=O)=O	-3%	105%[activator]
COc1ccc2nc(SCC(=O)c3cc(C)n(C)c3C)[nH]c2c1	30%	0%
Cc1ccc(CNC(=O)CSc2nc3[nH]ncc3c(=O)n2-c2ccccc2)cc1	-5%	-8%
Cc1cccc(C)c1NC(=O)Cn1c(=O)n(Cc2ccccc2)c(=O)c2c(C)c(C(=O)N(C)C)sc21	-19%	-23%
Cc1cccc(C)c1NC(=O)c1nc(S(C)(=O)=O)ncc1N(Cc1ccc(C(C)(C)C)cc1)Cc1ccco1	-6%	-6%
CC1CCCCC1NC(=O)/C=C/c1cccs1 (stereo not given)	86%[activator]	16%
O=C(Nc1ccc(OC(F)(F)F)cc1)C(=O)c1c[nH]c2ccccc12	189%[activator]	17%
COc1ccc(-c2cc(C(F)(F)F)nc(SCCC(=O)Nc3ccc(F)cc3F)n2)cc1	-16%	-11%
CCOC(=O)CSc1ncn(-c2nc(NC(C)(C)C)nc(N(C)C)n2)n1	2%	0%
COc1cccc(NC(=O)CSc2nc(=O)n(Cc3cccnc3)c3c2CCC3)c1	-7%	136%[activator]
CCSc1nnc(NC(=O)c2cccn(Cc3ccc(Cl)cc3)c2=O)s1	-37%	-30%
COCc1c(C(=O)OCC(=O)NCC2CCCO2)sc2cccc(F)c12 (stereo not given)	-1%	-3%
COc1ccc2nc(NC(=O)c3cc(=O)c4cc(C)c(C)cc4o3)sc2c1	-23%	9%
Cc1ccccc1-c1csc(=S)[nH]1	21%	7%
CCCCNC1C2CC3CC1CC(C2)C3NCCCC (stereo not given)	83%[activator]	0%
Cc1cc(C)cc(Nc2nc(NC3CCCC3)nc3c2cnn3-c2ccccc2)c1	-6%	-7%
Cc1ccc(C)c(NC(=O)Cn2c(=O)n(CC(=O)NCCc3ccccc3)c(=O)c3ccccc32)c1	-15%	-15%
Cc1ccc(CNC(=O)C2(C)CN(S(C)(=O)=O)CC(=O)N2c2ccc(Cl)cc2)cc1 (stereo not given)	-3%	15%
COc1ccc(NC(=O)c2ccccc2C)c2cccnc12	16%	-19%
COC(=O)C(CCSC)NC(=O)c1cc2c(n(-c3ccc(OC)cc3)c1=O)CC(C)(C)CC2=O (stereo not given)	-16%	6%
O=C(CCCN1CC=C(n2c(=O)[nH]c3ccccc32)CC1)c1ccc(F)cc1	14%[11.5 µM]	-9%
Cc1cccc(C)c1-n1ccc(C=O)c1	-11%	-4%[1.06 µM]
CCn1cc(S(=O)(=O)c2ccccc2)c(=O)c2cc(F)c(N3CCCC3)cc21	-6%	107%[activator]
CN(CC(=O)Nc1cccc2ccccc12)C(=O)CSc1nccn1-c1cccc(F)c1	7%	22%
COc1ccc(S(=O)(=O)Nc2cc(C(=O)O)ccc2C)cc1OC	20%	2%
COCC(C)NC(=O)CCc1ncc(-c2ccc(C)c(C)c2)o1 (stereo not given)	39%[activator]	0%
CC(=O)N(c1cccc(C)c1)c1nc(CSc2nnc(C)n2C2CC2)cs1	43%[activator]	0%
COc1cccc(CNC(=O)C(NS(=O)(=O)c2ccc3nc(C)sc3c2)C(C)C)c1 (stereo not given)	-11%	8%
Cc1ccc(OCc2nc(-c3ccc(C(=O)N4CCN(c5ccc(Cl)cc5)CC4)cc3)oc2C)cc1	-10%	-6%
CCC(NC(=O)C1CCCO1)c1ccccc1OC(C)C (stereo not given)	19%	13%
Cc1ccc(OCC(=O)Nc2cc(-c3nc4ccccc4[nH]3)ccc2C)c(C)c1	20%	-7%
CCC(CC)COC(=O)C1=C(C)N[C@]2(C)C[C@H]1c1ccccc1O2	-13%	-5%
CCOc1cc(OCC)cc(C(=O)Nc2ccc(Br)c(C)n2)c1	4%	-4%
CC(Sc1ccc(C(F)(F)F)cn1)C(=O)NC(c1ccccc1)c1ccccc1 (stereo not given)	-8%	-4%
COc1ccc(-c2nnc(SCCOc3ccc(Cl)cc3Cl)n2C(C)C)cc1	?	?
Cc1cc(C(C)(C)c2ccc(OC(=O)c3ccccc3F)c(C)c2)ccc1OC(=O)c1ccccc1F	16%	8%
CCCNC(=O)c1ccc(Cn2c(=O)c3cccn3c3cccnc32)cc1	-10%	20%
CC(Sc1ccc(C(F)(F)F)cn1)C(=O)Nc1ccc(F)cc1 (stereo not given)	8%	20%
OC1(c2cccc3ccccc23)CCN(Cc2ccccc2)C1 (stereo not given)	6%	6%

The closing seven records of the part before come first, to join the parts.
SMILES	2A firefly	2A Renilla
CCOc1cc(OCC)cc(C(=O)Nc2ccc(Br)c(C)n2)c1	4%	-4%
CC(Sc1ccc(C(F)(F)F)cn1)C(=O)NC(c1ccccc1)c1ccccc1 (stereo not given)	-8%	-4%
COc1ccc(-c2nnc(SCCOc3ccc(Cl)cc3Cl)n2C(C)C)cc1	?	?
Cc1cc(C(C)(C)c2ccc(OC(=O)c3ccccc3F)c(C)c2)ccc1OC(=O)c1ccccc1F	16%	8%
CCCNC(=O)c1ccc(Cn2c(=O)c3cccn3c3cccnc32)cc1	-10%	20%
CC(Sc1ccc(C(F)(F)F)cn1)C(=O)Nc1ccc(F)cc1 (stereo not given)	8%	20%
OC1(c2cccc3ccccc23)CCN(Cc2ccccc2)C1 (stereo not given)	6%	6%
CCOc1ccc(C(=O)NC(CC(=O)OC)c2cccs2)cc1OC (stereo not given)	6%	14%
Cc1cccc(C)c1NC(=O)CCCN1C(=O)CCn2nc(-c3cn(C)c4ccccc34)cc21	-12%	-14%
Cc1ccc(/C=C(/C#N)c2ccc(C(F)(F)F)cn2)cc1	0%	16%
COc1ccc(NC(=O)c2nc(-c3ccccc3)n(-c3ccccc3Cl)n2)cc1	-24%	5%
O=C(c1cccc2ccccc12)N(Cc1ccc2cc[nH]c2c1)C1CC1	-21%	56%[activator]
CCOC(=O)C1C(=O)C=C(/C=C/c2ccccc2)CC1c1ccccc1 (stereo not given)	10%	12%
CCOc1ccc(OCCSc2nnc(-c3ccccc3Cl)n2CCCOC)cc1	0%	-11%[1.06 µM]
CNS(=O)(=O)c1cc(NS(=O)(=O)c2cccc(Br)c2)ccc1C	-3%	195%[activator]
Cc1ccc(C)c(NC(=O)n2ncc3cc(Cl)ccc32)c1	1%	6%
Cc1c(C)n(Cc2ccncc2)c2ncn3nc(-c4ccncc4)nc3c12	2%	0%
COc1cc(NC(=O)Cc2ccsc2)ccc1N1CCCC1=O	15%	4%
O=C(NC1CC(=O)N(c2ccccc2)C1)c1cc2ccccc2o1 (stereo not given)	-16%	0%
O=C(Oc1ccccc1F)c1nc(SCc2ccccc2F)ncc1Cl	27%	20%
CCc1ccc(-n2nc(C)c3c2NC(=O)CSC3c2ccccc2C)cc1 (stereo not given)	?	?
CC(=O)N1CCN(C(C(=O)O)c2cn(Cc3ccccc3)c3cc(C(=O)O)ccc23)CC1 (stereo not given)	9%	4%
COc1ccc(S(=O)(=O)N2CCN(c3ccccc3OC)CC2)cc1	-19%	14%
O=C(c1ccc(F)cc1)n1nc(-c2cccnc2)nc1NCc1ccc(F)cc1	-3%	-10%
COCCNC(=S)NCc1cccc(CNC(=S)NCCOC)c1	-8%	1%
COc1ccc(-n2ncc3c(N4CCN(c5cccc(C)c5)C(C)C4)ncnc32)cc1 (stereo not given)	22%	48%[activator]
CCC(C)(CC)C(O)(C#CC[N+]1(Cc2ccccc2)CCCCC1)c1ccccc1 (stereo not given)	?	?
Cc1sc(NC(=O)C2c3ccccc3Oc3ccccc32)c(C(=O)OC(C)C)c1C	-12%	4%
COc1ccc(NC(=O)CC2NCCNC2=O)c(OC)c1 (stereo not given)	-10%	-4%
Cc1ccc(CN2CCSc3ccc(C(=O)NCc4ccc(OC(C)C)cc4)cc32)cc1	21%	13%
Clc1cccc(-n2ncc3c(N4CCC(Cc5ccccc5)CC4)ncnc32)c1	-4%	-6%
COc1ccc(-c2cc(C(=O)Oc3ccc(C)c(C)c3)c3ccccc3n2)cc1	0%	0%
Cc1ccc(C)c(-n2nnc(-c3nc(-c4ccccc4F)no3)c2C)c1	142%[activator]	1%
COc1ccccc1N1CCN(C(=O)c2nc(-c3ccc(C)cc3)n3c2CCCCC3)CC1	-18%	10%
CC1(C)Cc2sc3c(=O)n(Cc4ccccc4F)cnc3c2CO1	0%	8%
CSc1ccc(/C=C2\N=C(c3cccs3)OC2=O)cc1	13%	6%
CSc1nc(NCCOC(C)=O)c(C#N)c(-c2ccc(C(C)(C)C)cc2)n1	0%	-10%

Brought forward from above: two compounds; new compounds follow.
SMILES	2A firefly	2A Renilla
CSc1ccc(/C=C2\N=C(c3cccs3)OC2=O)cc1	13%	6%
CSc1nc(NCCOC(C)=O)c(C#N)c(-c2ccc(C(C)(C)C)cc2)n1	0%	-10%
CCOC(=O)c1cnc2ccc(OCC)cc2c1Nc1cccc(C(=O)OC)c1	19%	4%
Cc1nn(Cc2nnc(Nc3ccn(Cc4ccccc4Cl)n3)s2)c(C)c1Br	12%	3%
CCOC(=O)c1c(S(=O)(=O)N2CCCC(C(=O)NCc3ccccc3Cl)C2)c(C)n(C)c1C (stereo not given)	1%	42%[activator]
CCCNC(=O)c1ccc(NC(=O)Nc2ccccc2)cc1	95%[activator]	5%
CCC(=O)Oc1cc(C(C)(C)C)cc2cc(-c3nc(-c4ccc(OC)cc4OC)no3)c(=O)oc12	-11%	-10%
C(=N\N=C(c1ccccc1)c1ccccc1)/c1cn(-c2cccs2)nc1-c1ccccc1	0%	16%
N#Cc1cccc(NC(=O)CCC(=O)c2ccc3c(c2)CCC3)c1	13%	10%
Cc1ccc(-c2cc(-c3coc4ccccc4c3=O)c3c(n2)-c2cc(Cl)ccc2OC3)cc1	-16%	-16%
COC1(C(F)(F)F)NC(=O)N(c2ccc(F)cc2)C1=O (stereo not given)	-9%	-4%
CCOCCCNC(=O)c1cc2c(-c3ccc(OC)c(OC)c3)nn(C)c2s1	14%	-9%
O=C1CS(=O)(=O)C2(C(=O)N(Cc3ccccc3Cl)c3ccccc32)N1c1ccc(F)cc1 (stereo not given)	10%	8%
CC1CCCCN1S(=O)(=O)c1ccc(C(=O)Nc2ccc(Cl)c3ncsc23)cc1 (stereo not given)	5%	0%
Cc1cccc(N2CCN(C(=O)c3cc4ccc5cccnc5c4[nH]3)CC2)c1C	-6%	-6%
Cc1ccc(CNC(=O)Cn2cc(S(=O)(=O)Cc3ccccc3F)c3ccccc32)cc1	31%	23%
Cc1cc(=O)oc2cc(OCC(=O)NCCc3ccccc3)ccc12	9%	-4%
COC(=O)CCS(=O)(=O)c1ccc(Cc2ccc(S(=O)(=O)CCC(=O)OC)cc2)cc1	0%	20%
COc1ccc(C2=CC(c3ccccc3F)n3ncc(C(=O)Nc4ccc(C)cc4)c3N2)cc1 (stereo not given)	-17%	-6%
COc1ccc2cc(C(=O)N3CCC(C)(C(=O)NCc4ccccc4)CC3)[nH]c2c1	26%	14%
COC(=O)COc1ccc(C2C3=C(CC(C)(C)CC3=O)OC3=C2C(=O)CC(C)(C)C3)cc1OC	12%	2%
O=C(O)C(c1c[nH]c2cc(Br)ccc12)N1CCN(c2nsc3ccccc23)CC1 (stereo not given)	-23%	-19%
C/C=C/Cn1c(SC)nc2c1c(=O)[nH]c(=O)n2C	0%	-8%
Cc1cc(C)cc(N(C(=O)c2ccc3c(c2)OCO3)C2C=CS(=O)(=O)C2)c1 (stereo not given)	-14%	-2%
O=C(COc1ccc(Cl)cc1)Nc1nnc2n1CCS2	10%	-8%
CCN1CCN(CCOc2ccc3c(C)c(-c4ccc(OC)c(OC)c4)c(=O)oc3c2)CC1	-8%	-5%
Nc1nccnc1C(=O)NCCc1cccc(F)c1	147%[activator]	7%
CCCN(CC)c1ccc(C(=O)NCC(=O)NCC(F)(F)F)cc1	-5%	3%
COc1cccc(CCNC(=O)C(=O)NCc2n[nH]c(=O)c3ccccc23)c1	-9%	-12%
COc1ccc(NC(C)=O)c(NC(=O)CSc2nc3ccccc3o2)c1	8%	12%
CC(NC(=O)c1nn(C)c(=O)c2ccccc12)c1ccc(F)cc1 (stereo not given)	-3%	1%
COc1cccc(-c2nnc3n(CCc4ccccc4)c(=O)c4ccccc4n23)c1O	1%	3%
CN(CC(=O)N(C)c1c(N)n(Cc2ccccc2)c(=O)[nH]c1=O)Cc1ccccc1F	1%	-4%
CN(Cc1ccccc1)C(=O)c1c[nH]c2ccc(S(=O)(=O)Nc3ccccc3F)cc2c1=O	8%	24%
CCn1c(NCC(O)c2ccccc2)nc2c1c(=O)n(C)c(=O)n2C (stereo not given)	-34%	-25%

Some of the entries so far, with two lines to a compound.
Below each compound: 2A firefly | 2A Renilla
O=C(COc1ccc(Cl)cc1)Nc1nnc2n1CCS2
 : 10% | -8%
COC(=O)CCS(=O)(=O)c1ccc(Cc2ccc(S(=O)(=O)CCC(=O)OC)cc2)cc1
 : 0% | 20%

Compounds listed so far that contain a furan ring, fused or not:
SMILES	2A firefly	2A Renilla
Cc1ccc(CNc2nc(-c3ccco3)nn2S(C)(=O)=O)o1	163%[activator]	101%[activator]
Cc1cccc(C)c1NC(=O)c1nc(S(C)(=O)=O)ncc1N(Cc1ccc(C(C)(C)C)cc1)Cc1ccco1	-6%	-6%
O=C(NC1CC(=O)N(c2ccccc2)C1)c1cc2ccccc2o1 (stereo not given)	-16%	0%
